miR-21 reporter = qHTS Assay for Modulators of miRNAs and/orActivators of miR-21 | HeLa miR-21 FLuc reporter, luciferase, 48 h | Potency, µM (titrated, usually from 38.3 µM), for inactives: top-dose reporter change, positive = more light | 340,000 tested, under 10 active; active = well fitted rising curve with a large enough effect; inconclusive = small, poorly fitted or top-dose-only effect; inactive = no such curve, though single readings can be large or run the other way;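 also: % of control where 0% means no effect; miR-21 action dims this reporter so a rising signal means less miR-21 action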
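HeLa miR-21-FLuc reporter line, endogenous miR-21; 2000 cells/well in DMEM/10% FBS; compound titration up to ~40uM final, 48 h, 37 degree Celsius; luciferase detection reagent, 15 min lysis, CCD luminescence.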
* marks the source's active call; other numbers are inactive results; ? = inconclusive. Only part of the results is shown; count on the stated rates, not on these rows.

miR-21 reporter | mol
3% | COc1ccc(NC(=O)Cn2c(=O)oc3cc(S(=O)(=O)N4CCCC4)ccc32)cc1OC
-1% | Cc1ccc2oc(C(=O)Nc3ccc(S(=O)(=O)N(C)Cc4ccccc4)cc3)cc(=O)c2c1
11% | Cn1c(=O)oc2cc(S(=O)(=O)N3CCCC(C(=O)N4CCN(c5ccc(F)cc5)CC4)C3)ccc21 (stereo unspecified)
-2% | CC1CCc2c(sc3nnn(CC(=O)Nc4ccccc4Cl)c(=O)c23)C1 (stereo unspecified)
0% | Cc1cccc(NC(=O)CCCn2c(C)c3cnn(-c4ccccc4)c(=O)c3c2C)c1C
-19% | CCN(C(=O)CSc1nc2ccccc2nc1Cc1ccccc1OC)c1ccccc1
14% | CCOc1ccccc1N(C)C(=O)Cn1cnc2sc(C)c(S(=O)(=O)N3CCC(C)CC3)c2c1=O
27% | CC1(c2ccc(Cl)cc2)CC(C)(C)N(C(=O)c2cccc(F)c2)c2ccccc21 (stereo unspecified)
4% | CCn1c(C(=O)NCc2ccccc2OC)cc2sccc21
-30% | CN(C)CCNC(=O)CCCn1c(=O)c2cccn2c2ccccc21
9% | Cc1ccccc1NC(=O)CSc1nc(-c2ccc(F)cc2)c2cccc(C)c2n1
-12% | COc1ccc(Cl)cc1NC(=O)N(C)CCc1c(C)nn(C)c1C
0% | O=C(CCCn1c(=O)c2ccccc2n(Cc2cccc(Cl)c2)c1=O)NCCc1ccc(Cl)cc1
-4% | O=C(OCc1cc(=O)n2nc(C3CC3)sc2n1)c1cccc(NC(=O)c2ccccc2Cl)c1
-10% | CCC(CC)c1nn2c(=O)cc(COc3ccc(NC(=O)c4ccccc4Cl)cc3)nc2s1
11% | O=C(Nc1ccc(F)cc1)c1ccc(-n2cnc3cccnc32)cc1
4% | COc1ccc(OC)c(NS(=O)(=O)c2ccc3c(c2)CCCN3C(=O)C2CCC2)c1
2% | CCn1cc(C(=O)N2CCN(c3cccc(C)c3)C(C)C2)c(=O)c2cc(S(=O)(=O)N3CCOCC3)ccc21 (stereo unspecified)
16% | COc1cccc(N2C(=O)C(CC(=O)Nc3ccccc3)N(CCc3sccc3C)C2=O)c1 (stereo unspecified)
-7% | Cc1ccc(N2C(=O)CS(=O)(=O)C23C(=O)N(Cc2ccccc2C)c2ccccc23)cc1Cl (stereo unspecified)
-2% | Cc1cccc(CNC(=O)c2ccc(C)c(-n3c(C)nc4cccnc43)c2)c1
-3% | O=C(Nc1ccc2oc(-c3cccc4c(Br)cccc34)nc2c1)c1ccc(F)cc1
-32% | COc1ccc(-c2cn3nc(N4CCC(C(=O)NCc5ccccc5F)CC4)sc3n2)cc1
-33% | CC(C)Oc1ccc(CNC(=O)C2COc3ccccc3C2)cc1 (stereo unspecified)
16% | CCc1ccccc1N(C)C(=O)Nc1cn(CC(C)C)c(=O)c2ccccc12

Other entries
miR-21 reporter | mol
20% | O=C(c1cnc2c(c1)COc1ccccc1-2)c1ccccc1O
13% | CCCn1c(=O)sc2cc(NC(=O)COc3ccc(Cl)cc3)ccc21
-14% | Cc1ccccc1C(=O)Nc1cc(-c2ccc(Cl)cc2)nn1-c1ccccc1
-1% | CCOC(=O)c1ccc(NC(=O)c2oc(=O)c3ccccc3c2-c2ccccc2)cc1
0% | Cc1ccc(CNC(=O)Cn2c(=O)cc(C(F)(F)F)c3c(C)nn(C)c32)cc1
1% | Cc1ccc(Nc2nnc(-c3ccc(C)c(S(=O)(=O)N4CCN(C)CC4)c3)c3ccccc23)cc1
-15% | COc1ccc(Cn2c(SCc3ccc(C(=O)NC(C)c4ccccc4)cc3)nc3cccnc32)cc1 (stereo unspecified)
-1% | O=C(NC1CC(=O)N(c2ccccc2)C1)C1CCCCC1 (stereo unspecified)
-39% | CC(=O)c1cccc(NC(=O)c2cc3sc(Cl)cc3n2C)c1
0% | CCOC(=O)c1c(-c2ccc(OC)cc2)oc2ccc(OCc3ccc(Br)cc3)cc12
1% | Cc1ccc(C)c(CN2C(=O)c3ccccc3S(=O)(=O)c3ccc(C(=O)OCC4CCCO4)cc32)c1 (stereo unspecified)
-2% | Cc1ccc(N2CC(NC(=O)c3cc4ccccc4o3)CC2=O)cc1 (stereo unspecified)
0% | COc1ccc(Cl)cc1NC(=O)Cn1c(=O)n(Cc2ccco2)c(=O)c2ccc(C(=O)NC3CCCC3)cc21
3% | Cc1ccc2c(=O)cc(C(=O)Nc3nnc(C)s3)oc2c1
-3% | CCCN(CCC)CCNC(=O)C1CCCN(S(=O)(=O)c2cccc3nsnc23)C1 (stereo unspecified)
11% | O=C(Cn1c(=O)n(Cc2ccco2)c(=O)c2oc3ccccc3c21)Nc1ccc(F)c(Cl)c1
0% | Cc1ccc(S(=O)(=O)c2nc(-c3ccc(F)cc3)oc2SCC(=O)NC2CCCCC2)cc1
? | COc1ccc(OC)c(CCNC(=O)c2cnn(-c3ccccc3)c2C2CCN(C(=O)OC(C)(C)C)CC2)c1
? | O=C(CC1(O)C(=O)N(CCc2ccccc2)c2ccc(Br)cc21)c1ccc(F)cc1 (stereo unspecified)
-3% | COc1ccccc1CNC(=O)CC1N=C2c3ccccc3N=C(SCC(=O)Nc3ccc(F)cc3)N2C1=O (stereo unspecified)
0% | CCS(=O)(=O)N1CC(=O)N(c2cc(Cl)ccc2C)C(C)(C(=O)NC2CCCCCC2)C1 (stereo unspecified)
? | CCCOc1ccc(C(=O)N(Cc2cccs2)c2ccc(C)cc2)cc1
0% | CC(=O)N1c2ccc(S(=O)(=O)N3CCCCCC3)cc2CC1C(=O)NCc1ccccc1 (stereo unspecified)
-1% | Cc1ccc(CCNS(=O)(=O)c2cc(-c3cc(C)no3)ccc2C)cc1
-5% | CCOC(=O)C1CCCN(C(=O)c2cc3c(=O)[nH]c4ccc(C)cc4c3s2)C1 (stereo unspecified)

Next records follow:
miR-21 reporter | mol
0% | COC(=O)c1ccccc1NC(=O)Cn1c(=O)n(Cc2ccc(C(=O)NCc3ccc4c(c3)OCO4)cc2)c(=O)c2ccccc21
29% | COc1cc(OC)c(NC(=O)CCc2nc(C3=CCN(Cc4cccc(Cl)c4)CC3)no2)cc1Cl
-4% | Cc1cccc(NC(=O)N2CCC3(CC2)Oc2ccccc2C(=O)N3Cc2ccccc2F)c1C
19% | O=C(NCc1ccc2c(c1)CCN2C(=O)c1ccncc1)c1ccccc1F
-8% | O=C(Nc1ccc(Br)c2cccnc12)c1cccc2ccccc12
9% | Cc1cc(C)c(NC(=O)CSc2nc3nccnc3c(=O)n2CCc2c[nH]c3ccccc23)c(C)c1
-12% | CCOc1ccc(-c2cc(-c3nc(-c4ccc(C)cc4)no3)[nH]n2)cc1
9% | Cc1ccc(Cn2ccn(Cc3ccccc3F)c(=O)c2=O)cc1
-5% | O=C(CSc1nnc(-c2cccs2)o1)Oc1ccccc1Cl
-5% | Cc1ccc(CCNC(c2ccc(F)cc2)c2nnc(-c3ccccc3Cl)o2)cc1 (stereo unspecified)
-1% | O=C(Nc1ccc(Cl)cc1F)c1cc(S(=O)(=O)NC2CCCCCC2)ccc1F
24% | Cc1ccc(-n2ncc(C(=O)NCc3cccs3)c2C2CCN(C(=O)OC(C)(C)C)CC2)c(C)c1
0% | Cc1cccc(N2CCN(Cc3nnc(-c4ccccc4C)o3)CC2C)c1 (stereo unspecified)
-12% | O=S(=O)(c1ccccc1)c1nc(-c2cccc(Cl)c2)oc1NCc1ccccc1
-10% | COc1ccc(Cl)cc1NC(=O)COc1cccc2c(=O)n(C)ccc12
0% | CC(=O)c1ccc(NC(=O)c2nc(-c3ccccc3)n(-c3ccc(C)cc3)n2)cc1
-3% | COc1ccc(C2C(=O)N(C3CCCCC3)CC(=O)N2CCc2ccc(C)cc2)cc1OC (stereo unspecified)
0% | O=C(c1cnn(-c2ccc(F)cc2)c1-n1cccc1)N1CCN(c2ccc(Cl)cc2)CC1
1% | Cc1cc(C)c2sc(N3CCN(C(=O)c4ccc(N(C)C)cc4)CC3)nc2c1
-8% | COc1ccc(OC)c(CNC(=O)CN(c2ccc(C)cc2)S(=O)(=O)N(C)C)c1
-1% | Cc1ccc(C2=NN(CC(=O)NCCc3ccc(Cl)cc3)C(=O)CC2)cc1
1% | CC(C)(C)NC(=O)Cn1cc(S(=O)(=O)Cc2ccc(F)cc2)c2ccccc21
-10% | Cc1ccc(C(=O)N(Cc2ccc(N(C)C)cc2)CC2CCCO2)cc1 (stereo unspecified)
3% | Cc1ccc(NC(=O)C2CCCN(C(=O)c3cnn(-c4ccc(F)cc4)c3-n3cccc3)C2)c(Cl)c1 (stereo unspecified)
2% | CCn1c(=O)c2sccc2n2c(CCC(=O)Nc3ccc(OC)cc3OC)nnc12

Given as tab-separated lines: entries from further up
SMILES	miR-21 reporter
COc1ccc(NC(=O)Cn2c(=O)oc3cc(S(=O)(=O)N4CCCC4)ccc32)cc1OC	3%
Cc1ccc2oc(C(=O)Nc3ccc(S(=O)(=O)N(C)Cc4ccccc4)cc3)cc(=O)c2c1	-1%
Cn1c(=O)oc2cc(S(=O)(=O)N3CCCC(C(=O)N4CCN(c5ccc(F)cc5)CC4)C3)ccc21 (stereo unspecified)	11%
CC1CCc2c(sc3nnn(CC(=O)Nc4ccccc4Cl)c(=O)c23)C1 (stereo unspecified)	-2%
Cc1cccc(NC(=O)CCCn2c(C)c3cnn(-c4ccccc4)c(=O)c3c2C)c1C	0%
CCN(C(=O)CSc1nc2ccccc2nc1Cc1ccccc1OC)c1ccccc1	-19%
CCOc1ccccc1N(C)C(=O)Cn1cnc2sc(C)c(S(=O)(=O)N3CCC(C)CC3)c2c1=O	14%
CC1(c2ccc(Cl)cc2)CC(C)(C)N(C(=O)c2cccc(F)c2)c2ccccc21 (stereo unspecified)	27%
CCn1c(C(=O)NCc2ccccc2OC)cc2sccc21	4%
CN(C)CCNC(=O)CCCn1c(=O)c2cccn2c2ccccc21	-30%
Cc1ccccc1NC(=O)CSc1nc(-c2ccc(F)cc2)c2cccc(C)c2n1	9%
COc1ccc(Cl)cc1NC(=O)N(C)CCc1c(C)nn(C)c1C	-12%
O=C(CCCn1c(=O)c2ccccc2n(Cc2cccc(Cl)c2)c1=O)NCCc1ccc(Cl)cc1	0%
O=C(OCc1cc(=O)n2nc(C3CC3)sc2n1)c1cccc(NC(=O)c2ccccc2Cl)c1	-4%
CCC(CC)c1nn2c(=O)cc(COc3ccc(NC(=O)c4ccccc4Cl)cc3)nc2s1	-10%
O=C(Nc1ccc(F)cc1)c1ccc(-n2cnc3cccnc32)cc1	11%

Carrying on:
miR-21 reporter | mol
-3% | Cc1cn2c(=O)c(S(=O)(=O)NC(C)c3ccccc3)c(C)nc2s1 (stereo unspecified)
-2% | Cc1oc(-c2ccc(Cl)cc2)nc1CN1CCCC(C(=O)NCCc2ccccc2)C1 (stereo unspecified)
0% | Cc1ccc(-c2cc(C(F)(F)F)n3nc(C(=O)Nc4ccc(Cl)cc4Cl)cc3n2)cc1
-14% | CCN(CC)S(=O)(=O)c1nnc(NC(=O)COc2cccc(C)c2)s1
-5% | CC(=O)Nc1c(C)nn(-c2ccccc2)c1N1CCC(C(=O)Nc2ccc(C)cc2Cl)CC1
-26% | Cc1ccc2c(=O)c(C(=O)c3cccc(Cl)c3)cn(CC(=O)Nc3ccccc3C(F)(F)F)c2n1
-1% | Cc1cn(C)c(CC(=O)N2CCN(c3cccc(C(F)(F)F)c3)CC2)c1C(=O)O
? | COc1ccc(/C=C/c2nc(C#N)c(NCc3ccc(C)cc3)o2)cc1OC
12% | O=C(Nc1ccc2oc(-c3cccnc3)nc2c1)c1ccc(-c2ccccc2OC(F)(F)F)o1
-12% | CN(C(=O)CSc1nc2ccc(NC(=O)COc3ccccc3Cl)cc2s1)c1ccccc1
29% | O=C(c1ccc(F)cc1)N1CCc2c([nH]c3ccccc23)C1c1ccc(Cl)cc1 (stereo unspecified)
4% | COc1ccc(CC(=O)NCCc2csc3nc(-c4ccccc4F)nn23)cc1
2% | O=C(CC(c1cccs1)N1Cc2ccccc2C1=O)Nc1ccc(F)c(Cl)c1 (stereo unspecified)
30% | CC(C)Oc1ccc(CNC(=O)C2CCN(c3nc4ccccc4nc3C(F)(F)F)CC2)cc1
-1% | COc1cc(CNCc2c(C(=O)O)c(C)n(Cc3cccc(Cl)c3)c2C)cc(OC)c1OC
1% | CCOc1ccc(OCC)c(NC(=O)c2nnn(Cc3cc(Br)ccc3OC)c2N)c1
5% | O=C(C1CCC1)N1CCCc2cc(S(=O)(=O)N3CCN(c4cccc(Cl)c4)CC3)ccc21
10% | Cc1cccc(CNC(=O)c2ccc3nc(Cc4ccccc4)oc3c2)c1
-14% | Cc1ccn2c(Nc3ccc(C(C)C)cc3)c(-c3ccsc3)nc2c1
-2% | COc1ccc(Cl)cc1NC(=O)c1nnn(Cc2cccc(C(F)(F)F)c2)c1N
16% | O=C(Nc1c(C(=O)N2CCN(c3ccc(F)cc3)CC2)oc2ccccc12)c1ccco1
0% | CC1CCN(S(=O)(=O)c2ccc3c(c2)oc(=O)n3CC(=O)N2CCCCC2)CC1
-1% | CCc1ccc(NC(=O)c2ccc(CN3CC(=O)N4CCCCC4C3=O)cc2)cc1 (stereo unspecified)
11% | Cc1cc(C)cc(OCC(=O)N(Cc2ccco2)Cc2ccccc2Cl)c1
-2% | CC(Oc1ccccc1)C(=O)Nc1cccc(-c2cn3cccnc3n2)c1 (stereo unspecified)
-2% | CCOc1ccc(CC(=O)NCCc2csc(-c3ccc(Cl)cc3)n2)cc1
30% | COc1ccccc1-c1cc2nc(C)c(CCC(=O)O)c(C)n2n1

Two neighbouring compounds out of the list so far:
miR-21 reporter | mol
-3% | Cc1cn2c(=O)c(S(=O)(=O)NC(C)c3ccccc3)c(C)nc2s1 (stereo unspecified)
-2% | Cc1oc(-c2ccc(Cl)cc2)nc1CN1CCCC(C(=O)NCCc2ccccc2)C1 (stereo unspecified)
